From PubChem
Insulin prom inh – TRM-6 insulin promoter activity inhibition; TRM-6 cells (human fetal islet line), insulin promoter-eGFP reporter, imaging; reporter expression induced with tamoxifen; AID 1273; inhibition, % at 2 µM; 130,000 tested, 0.9% active;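 active = inhibition above the mean plus 3 SD, with well images judged a real hit on visual review, cut at about 60% in these data, passing the limit was not always enough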
HSV augment – HSV replication enhancement | maximum fold increase | 220,000 tested, 0.005% active | HSV replication augmentation in cells, fold increase;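 active = peak rise of 1.5-fold or more in the series; tested in PC3 cells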;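 note: first round at 10 µM; read as green reporter fluorescence; hits show the peak of a series up to 25 µM; 1 = signal of infected wells without compound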
PKD1 kinase inh – blocks activity of human protein kinase D1 | PKD1 kinase fluorescence polarization assay | inhibition, %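 (about 10 µM by stock and volumes)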 | 200,000 tested, 0.056% active | AID 797;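 active = inhibition of 50% or more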;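 note: controls were vehicle for no effect and a reference inhibitor for full effect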
RGS16-Gao – regulators of human RGS16-Galphao interaction | O15492+P09471 | bead-based flow cytometry RGS16-Galphao binding, fluorescence; actives lie on both sides | binding response (% of control), % at 10 µM | 220,000 tested, 0.38% active;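 active = below 25% or above 175%, edge rows of some plates excepted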;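 note: Galphao activated by GDP with aluminum fluoride before binding; 100% = wells without compound and 0% = beads without RGS; some results beyond the cut were filed as inactive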
Target sequence (O15492 whole entry, looked up): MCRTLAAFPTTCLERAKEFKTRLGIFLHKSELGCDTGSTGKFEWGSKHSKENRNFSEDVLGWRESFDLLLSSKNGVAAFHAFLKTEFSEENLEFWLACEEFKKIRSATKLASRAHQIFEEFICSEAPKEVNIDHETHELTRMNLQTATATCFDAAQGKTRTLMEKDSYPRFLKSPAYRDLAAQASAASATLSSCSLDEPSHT
Target sequence (P09471 whole entry, looked up): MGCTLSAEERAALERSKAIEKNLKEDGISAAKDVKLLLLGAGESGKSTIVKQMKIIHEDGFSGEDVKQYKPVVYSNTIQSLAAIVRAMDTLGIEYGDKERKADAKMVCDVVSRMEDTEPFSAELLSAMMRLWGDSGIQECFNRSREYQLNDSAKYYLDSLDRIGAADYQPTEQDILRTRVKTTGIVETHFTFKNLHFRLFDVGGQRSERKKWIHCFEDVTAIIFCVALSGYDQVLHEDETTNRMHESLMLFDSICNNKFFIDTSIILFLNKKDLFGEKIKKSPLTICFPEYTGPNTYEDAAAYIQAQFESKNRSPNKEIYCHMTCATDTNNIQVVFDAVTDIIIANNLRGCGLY
GALR2 agonist – activates the human galanin receptor 2; 140,000 tested, 0.48% active; activation, %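 (tested at 5 µM)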; GALR2-expressing cells, agonist activation read-out;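 active = above mean plus 3 SD of all compounds, about 5% in these data, not always enough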;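 note: 0% = vehicle buffer wells and 100% = reference agonist at full effect; tested in CHO reporter cells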
Target sequence (O43603 whole entry, looked up): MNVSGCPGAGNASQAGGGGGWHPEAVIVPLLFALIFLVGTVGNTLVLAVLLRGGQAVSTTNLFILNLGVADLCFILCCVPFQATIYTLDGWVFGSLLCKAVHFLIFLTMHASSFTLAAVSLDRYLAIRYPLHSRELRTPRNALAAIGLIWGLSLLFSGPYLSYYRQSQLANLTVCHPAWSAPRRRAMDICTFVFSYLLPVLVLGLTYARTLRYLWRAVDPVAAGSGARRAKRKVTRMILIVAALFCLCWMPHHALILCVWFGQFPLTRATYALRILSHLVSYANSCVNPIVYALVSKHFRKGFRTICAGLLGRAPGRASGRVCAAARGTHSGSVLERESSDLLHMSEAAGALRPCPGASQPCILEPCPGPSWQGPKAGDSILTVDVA
Insulin prom inh cell count – also measured in Insulin prom inh; calls as there; normalized cell count, %; measured here: cell count, toxicity; reference of the scale not given here;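 cells exposed to compound for 48 h; stained nuclei by imaging scaled within each plate; lower means fewer cells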
HSV augment primary fold – further read-out of HSV augment, marked with its call; fold increase; compound at 10 µM; measured here: primary screen fold increase 10 uM; tested in PC3 cells;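 GFP signal in the first replicate; 1 = infected wells without compound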
* = called active by the depositor; i = inactive; x = no result given.

SMILES | Insulin prom inh | Insulin prom inh cell count | HSV augment | HSV augment primary fold | PKD1 kinase inh | RGS16-Gao | GALR2 agonist
C=CCN1C(=O)CN=C1Nc1ccc(F)cc1 | 43 | 131 | i | 0.9 | 2 | 98 | x
O=S(=O)(NC1=NCCCCCC1)c1cccs1 | -12 | 101 | i | 1 | -12 | 100 | -2.6
O=C(COc1ccc(Cl)cc1)Nc1ccc2oc(-c3ccncc3)nc2c1 | x | x | i | 0.9 | -3 | 97 | -1.4
COC(=O)Cc1ccc(NC(=O)c2ccc(Br)o2)cc1 | -15 | 98 | i | 0.89 | 2 | 103 | -2.8
O=c1c2cc(Br)cc(Br)c2oc2nc3n(c(=O)c12)CCCS3 | -9 | 93 | x | x | 7 | 95 | -0.5
NC(=S)N/N=C/C=C/c1ccccc1 | x | x | i | 0.78 | -1 | 102 | -0.3
CCOC(=O)c1ccc(NC(=O)CNC(=O)C23CC4CC(CC(C4)C2)C3)cc1 | -24 | 122 | i | 0.7 | -14 | 97 | -0.1
CN(Cc1ccccc1)C(=O)Cn1c(=O)oc2cc(S(=O)(=O)N3CCCC3)ccc21 | x | x | i | 1 | 4 | 99 | -1.4
Cc1ccc2[nH]c(=O)c(CN(Cc3cccs3)C(=S)NCC3CCCO3)cc2c1 (centres undefined) | 12 | 175 | i | 0.84 | 1 | 100 | -0.1
CCN(C(=S)Nc1cccnc1)c1ccccc1 | x | x | i | 1 | -1 | 100 | x
COc1ccccc1Nc1nc(Cl)c(C=O)s1 | x | x | i | 1.2 | -6 | 97 | x
Cc1cccn2c(=O)c(/C=N/O)c(N3CCCCC3)nc12 | x | x | i | 0.86 | 7 | 102 | -2.3
O=C(NCc1ccccc1Cl)C1CCN(S(=O)(=O)N2CCOCC2)CC1 | x | x | i | 0.88 | -7 | 98 | x
O=C(COC(=O)CCC(=O)c1ccc(F)cc1)Nc1cccc(S(=O)(=O)N2CCOCC2)c1 | x | x | i | 0.98 | 2 | 102 | x
O=C(O)Cn1nnnc1SCC(=O)Nc1ccc(F)cc1F | x | x | i | 0.98 | -2 | 98 | x
N#Cc1nc(-c2cccs2)oc1N1CCN(c2ccccc2)CC1 | -67 | 126 | i | 0.91 | -6 | 96 | -1.6
COc1ccc(NC(=O)CCN2CCC(C)CC2)cc1 | -7 | 119 | i | 1 | 2 | 106 | -1.2
COc1ccc2[nH]c(C)c(CCNC(=S)Nc3ccccc3C)c2c1 | 7 | 148 | x | x | 2 | 96 | -2.7
CCOC(=O)CCCNC(=O)CSc1nc2ccc(OCC)cc2[nH]1 | x | x | i | 1 | -5 | 96 | x
Cc1ccc(NC(=O)C(=O)NCCCN2CCOCC2)c(C)c1 | x | x | i | 1 | x | 96 | x
O=c1ccnc(NCCc2ccccc2)[nH]1 | 28 | 197 | i | 0.89 | 0 | 53 | 0.8
CC(NC(=O)c1cc(Br)ccc1Cl)c1ccccc1 (centres undefined) | x | x | i | 1.1 | x | 96 | x
CSCCC(/C(O)=C(\C#N)c1nc2ccccc2[nH]1)N1C(=O)c2ccccc2C1=O (centres undefined) | x | x | i | 0.86 | 1 | 98 | 1.3
Cc1ccc(OCc2ccc(C(=O)NCc3cccnc3)cc2)cc1C | x | x | i | 0.8 | -7 | 112 | x

Rewritten with two lines to a compound: entries from further up.
Each structure is followed by: Insulin prom inh, Insulin prom inh cell count, HSV augment, HSV augment primary fold, PKD1 kinase inh, RGS16-Gao, GALR2 agonist
- CCN(C(=S)Nc1cccnc1)c1ccccc1
  x, x, i, 1, -1, 100, x
- COc1ccccc1Nc1nc(Cl)c(C=O)s1
  x, x, i, 1.2, -6, 97, x
- Cc1cccn2c(=O)c(/C=N/O)c(N3CCCCC3)nc12
  x, x, i, 0.86, 7, 102, -2.3
- O=C(NCc1ccccc1Cl)C1CCN(S(=O)(=O)N2CCOCC2)CC1
  x, x, i, 0.88, -7, 98, x
- O=C(COC(=O)CCC(=O)c1ccc(F)cc1)Nc1cccc(S(=O)(=O)N2CCOCC2)c1
  x, x, i, 0.98, 2, 102, x
- O=C(O)Cn1nnnc1SCC(=O)Nc1ccc(F)cc1F
  x, x, i, 0.98, -2, 98, x
- N#Cc1nc(-c2cccs2)oc1N1CCN(c2ccccc2)CC1
  -67, 126, i, 0.91, -6, 96, -1.6
- COc1ccc(NC(=O)CCN2CCC(C)CC2)cc1
  -7, 119, i, 1, 2, 106, -1.2
- COc1ccc2[nH]c(C)c(CCNC(=S)Nc3ccccc3C)c2c1
  7, 148, x, x, 2, 96, -2.7
- CCOC(=O)CCCNC(=O)CSc1nc2ccc(OCC)cc2[nH]1
  x, x, i, 1, -5, 96, x
- Cc1ccc(NC(=O)C(=O)NCCCN2CCOCC2)c(C)c1
  x, x, i, 1, x, 96, x
- O=c1ccnc(NCCc2ccccc2)[nH]1
  28, 197, i, 0.89, 0, 53, 0.8
- CC(NC(=O)c1cc(Br)ccc1Cl)c1ccccc1 (centres undefined)
  x, x, i, 1.1, x, 96, x

Remaining list, next part
SMILES | Insulin prom inh | Insulin prom inh cell count | HSV augment | HSV augment primary fold | PKD1 kinase inh | RGS16-Gao | GALR2 agonist
Cc1cc(C)c(NC(=O)CSc2nnc(-c3ccncc3)n2Cc2ccco2)c(Cl)c1 | 3 | 57 | i | 0.92 | -1 | 101 | -1.9
O=C(c1cnc2nc3ccccc3n2c1)c1cc(F)ccc1O | x | x | i | 1.2 | -11 | 97 | x
C=CCn1c(CNc2ccccc2)nnc1SCC(=O)N/N=C/c1ccccc1O | 14 | 138 | i | 0.71 | 11 | 96 | -1.9
Cn1c(N)c(C(=O)COC(=O)CSc2ccc(Cl)cc2)c(=O)n(C)c1=O | 0 | 103 | i | 0.96 | -4 | 95 | -0.4
COCCCNC(=O)CC(NS(=O)(=O)c1ccc(Cl)cc1)c1ccc(OC)cc1 (centres undefined) | -61 | 97 | i | 1.1 | -7 | 105 | -1.8
COCCN(Cc1cc2cccc(C)c2[nH]c1=O)C(=O)c1ccccc1 | 5 | 105 | i | 0.96 | -3 | 100 | -3.6
COc1ccc(/C=C/C(=O)O/N=C(\N)c2cccnc2)cc1OC | x | x | i | 1 | x | 99 | x
Cc1ccc(S(=O)(=O)Cn2nnnc2C(C(C)C)N2CCN(C(=O)c3ccco3)CC2)cc1 (centres undefined) | -10 | 140 | i | 1 | -2 | x | 0.1
Cc1ccc(C(=O)CSc2nsc(C)c2C#N)cc1 | 0 | 107 | i | 1.1 | -7 | 96 | -1.7
COC(=O)CCc1c(C)[nH]c(=S)[nH]c1=O | -6 | 90 | i | 1 | 3 | 100 | -0.6
Cc1ncc(S(=O)(=O)c2ccc(Cl)cc2)c(-c2ccccc2)n1 | -22 | 71 | i | 0.91 | -1 | 104 | -2.2
COc1ccc(C2CC(c3cccs3)=NN2c2nc(C)c(C(C)=O)s2)cc1OC (centres undefined) | 0 | 86 | i | 0.85 | 5 | 113 | x
Cc1cc(C)c(S(=O)(=O)/N=C2/C=C(Sc3ncn[nH]3)C(=O)c3ccccc32)cc1C | -178 | 7 | i | 1.3 | -12 | -0.4* | 0.3
Cc1ccc(OCc2nnc(SCC(=O)Nc3ncc(C)s3)o2)cc1 | x | x | i | 1 | x | 98 | x
COc1cc(-c2nnc(-c3ccco3)o2)ccc1OCc1ccccc1 | 11 | 97 | i | 0.71 | -2 | 105 | -0.3
CCNS(=O)(=O)c1ccc(CCC(=O)NCc2ccc(C)cc2)cc1 | x | x | i | 1 | -10 | 108 | x
COc1ccc(-c2nn(CCC#N)cc2/C=N/O)cc1OC | 27 | 104 | i | 0.9 | -1 | 141 | x
CSCCC(NC(=O)c1ccoc1C)C(=O)O (centres undefined) | x | x | i | 1.1 | -1 | 98 | -0.1
O=C(CCN1CCCCCC1)Nc1ccccc1F | -28 | 106 | i | 0.94 | -3 | 101 | -0.8
COc1ccc(C(=O)Nc2ccccc2N2CCOCC2)cc1[N+](=O)[O-] | 29 | 140 | i | 0.99 | -1 | 106 | 0.7
Cc1ccc(CNC(=O)CCc2ccc(S(=O)(=O)NC3CCCCC3)cc2)cc1 | -10 | 130 | i | 0.97 | 4 | 40 | -2.6
O=C(Nc1ccccc1)c1ccc(F)c(S(=O)(=O)N2CCOCC2)c1 | -31 | 134 | i | 0.79 | -8 | 84 | -0.2
COc1ccccc1/C=C(\NC(=O)c1ccc(OC)c(OC)c1)C(=O)Nc1cc([N+](=O)[O-])ccc1C | 3 | 116 | i | 0.83 | -1 | 99 | 0.5
Cn1cc(C(=O)NCc2cccs2)c(=O)c2cc(S(=O)(=O)N3CCCC3)ccc21 | -100 | 98 | i | 0.99 | 3 | 99 | -0.2
CCC(=O)N1CCN(CCN=CC2=C(O)CC(c3ccc(OC)cc3)CC2=O)CC1 (centres undefined) | -33 | 84 | i | 0.99 | -8 | 104 | -1.1
CC(C)(C)c1ccc(S(=O)(=O)CCc2ccccn2)cc1 | 52 | 116 | i | 0.93 | -8 | 100 | -2.9
Cc1cc(OC(=O)Cc2cccc3ccccc23)c([N+](=O)[O-])c(=O)[nH]1 | x | x | i | 0.92 | -14 | 56 | 0.0
Cc1csc(SC(C)c2nc3scc(-c4ccccc4)c3c(=O)[nH]2)n1 (centres undefined) | x | x | i | 1.1 | x | 97 | x
CCCn1nc(C(=O)OCC(=O)c2c(N)n(C)c(=O)n(C)c2=O)c2ccccc2c1=O | -33 | 155 | i | 0.85 | 4 | 106 | x
CN(CCc1cnn(C)c1)Cc1cn(C)nc1-c1ccc2c(c1)OCCO2 | 7 | 87 | i | 1 | -3 | 120 | x
CCN1CCN(C(=O)c2ccc(CN(c3ccc(C)c(C)c3)S(C)(=O)=O)cc2)CC1 | x | x | i | 1 | 6 | 101 | x
Cc1sc2ncnc(SCC(=O)c3ccc(O)cc3O)c2c1C | x | x | i | 1.1 | x | 102 | x
C[C@H]1CC[C@@]2(O[C@H](CCO)C[C@@H](O)[C@@H]2O)O1 | x | x | i | 0.75 | -5 | 102 | x
Clc1ccccc1-c1nn2c(-c3ccncc3)nnc2s1 | 23 | 96 | i | 1 | 0 | 91 | -2.2
Cc1ccc(Cn2c(=N)c(C(=O)NCc3ccco3)cc3c(=O)n4ccccc4nc32)cc1 | -6 | 113 | x | x | -2 | 153 | 6.8*
Cc1ccc(S(=O)(=O)Nc2ccccc2/C=N/c2nc3ccccc3n2C(C)C)cc1 | 11 | 75 | i | 0.96 | 8 | 112 | -0.9
COC(C/C=C/[C@@H](O)COCc1ccccc1)OC | x | x | i | 0.91 | x | 104 | x
C[C@@H](C(=O)OCC(=O)Nc1cc(S(=O)(=O)N2CCOCC2)ccc1Cl)N1C(=O)C2CCCCC2C1=O (some centres undefined) | -9 | 149 | i | 0.92 | -3 | 101 | 0.4
OCc1ccc(O)c2ncccc12 | -18 | 60 | i | 1 | -2 | 100 | 0.3
CCN(CC)CCNC(=O)c1ccc(Sc2ccc(C)cc2)c(NC(C)=O)c1 | x | x | i | 0.93 | -2 | 101 | x
O=C(NNC(=S)NC(=O)c1sc2ccccc2c1Cl)c1ccc(Cl)cc1 | -53 | 27 | i | 0.84 | -8 | 107 | -0.7
C=CCN1CN(CCc2ccccc2)CNC1=S | x | x | i | 0.88 | x | 104 | x
COCCCNC(=O)CC(NS(=O)(=O)c1ccc(F)cc1)c1ccc(OC)cc1 (centres undefined) | 17 | 103 | i | 0.92 | -2 | 99 | -3.0
CCC(C)NC(=O)Nc1ccc(Br)cc1Cl (centres undefined) | x | x | i | 1.1 | -4 | 103 | x
COCC1CCCN(Cc2nc(Cc3ccccc3)no2)C1 (centres undefined) | x | x | i | 0.97 | -3 | 101 | x
CCN(CC)S(=O)(=O)c1ccc(/C=C/C(=O)Nc2ccccc2N2CCOCC2)cc1 | x | x | i | 1 | x | 101 | x
NS(=O)(=O)c1ccc(CCNC(=O)Cc2ccc(S(=O)(=O)N3CCCC3)s2)cc1 | x | x | i | 0.99 | x | 95 | x
O=C(NCCO)C1CCN(C(=O)c2ccc(-c3ccccc3)cc2)CC1 | x | x | i | 0.97 | -1 | 106 | x
Cc1c(OCc2ccccc2)c(=O)ccn1Cc1ccc(Cl)cc1 | -6 | 149 | i | 0.96 | -3 | 101 | -2.1
COC(=O)COc1ccc(S(=O)(=O)Nc2ccc3c(c2)OCO3)cc1Cl | -228 | 33 | i | 0.95 | -4 | 122 | -1.3
O=C(OCCn1cncn1)c1cc2ccccc2oc1=O | x | x | i | 0.96 | 4 | 98 | -3.1
Cc1ccccc1NC(=O)NCC1CCCO1 (centres undefined) | -17 | 131 | i | 1 | -5 | 104 | -1.8
C/C(Cl)=C/CSc1nn2c(=O)c3ccccc3nc2s1 | x | x | i | 0.85 | 0 | 89 | -0.8
